# High-throughput results (PubChem BioAssay)
# HSD17B inh = HSD17B dehydrogenase inhibition; Q99714; recombinant HSD17B10, NADH fluorescence kinetic; many of its hits are not listed in these tables; Potency, µM (series often up to 57.1 µM), for the others: top-dose activity change, negative = inhibition, actives largely listed as inhibitors; hit rate 7.6% among 75,000; AID 893; active means well fitted inhibition curve with a large enough effect; inconclusive means small, poorly fitted or top-dose-only effect; inactive means no such curve, though single readings can be large or run the other way;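 further: the protocol describes HADH2 (HSD17B10) and not the HSD17B4 of the title; nearly all actives have a fitted effect of over 70% in size; most hits overshoot -100% by far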
#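 Activity followed as NADH fluorescence increase (ex 360, em 450 nm) every 30 seconds for 4 min, using final 90 uM beta-hydroxybutyryl CoA and 1 mM NAD+. Recombinant His-tagged enzyme, 20 nM, pH 9.0 Tris buffer, 15 min compound preincubation.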
# * = called active by the depositor; ? = inconclusive; [ ] = dose if it differs, or a comment. On the % scale 0 is the no-effect control and ±100 the full control effect; potency means the concentration at half of the fitted maximal effect. Not all compounds are listed, so the mix of outcomes need not match the whole.
compound | HSD17B inh
O=C1NCC2(CCN(CCc3ccccc3)CC2)O1 | 1%
CCCCCC(=O)O[C@@]1(C(C)=O)CCC2C3CCC4=CC(=O)CC[C@@]4(C)C3CC[C@]21C (some centres not stated) | 1%
NS(=O)(=O)c1cc2c(cc1C(F)(F)F)NC(Cc1ccccc1)NS2(=O)=O (configuration not stated) | -1%
CCN(CC)C[C@@H]1CCCCN1CC(=O)N1c2ccccc2C(=O)Nc2cccnc21 | 0%
O=c1cc(-c2ccc(O)cc2)oc2cc(O)ccc12 | 7.9µM*
Nc1nccs1 | -3%
c1ccc2c(CC3=NCCN3)cccc2c1 | 4%
NS(=O)(=O)c1cc2c(cc1C(F)(F)F)N[C@H](Cc1ccccc1)NS2(=O)=O | 2%[25.6 µM]
CC(=O)NCCCCCC(=O)O | -4%
C[C@H]1[C@H](C)CC[C@]2(C(=O)O)CC[C@]3(C)C(=CCC4[C@@]5(C)C[C@@H](O)[C@H](O)[C@@](C)(CO)[C@@H]5CC[C@]43C)[C@H]12 (some centres not stated) | -6%
Nc1c2c(nc3ccccc13)CCC[C@H]2O | 1%
CN1CCC(=C2c3ccccc3CCc3sccc32)CC1 | 5%

# In a second layout: results already given.
> CCCCCC(=O)O[C@@]1(C(C)=O)CCC2C3CCC4=CC(=O)CC[C@@]4(C)C3CC[C@]21C (some centres not stated)
  HSD17B inh: 1%

> NS(=O)(=O)c1cc2c(cc1C(F)(F)F)NC(Cc1ccccc1)NS2(=O)=O (configuration not stated)
  HSD17B inh: -1%

> CCN(CC)C[C@@H]1CCCCN1CC(=O)N1c2ccccc2C(=O)Nc2cccnc21
  HSD17B inh: 0%

# (continued)
compound | HSD17B inh
CC(=O)[C@@H]1CC[C@@H]2[C@@H]3C[C@H](C)C4=CC(=O)CC[C@@]4(C)[C@H]3[C@H](O)C[C@]21C | -3%[25.6 µM]
O=C(Cn1ccnc1[N+](=O)[O-])NCCO | 4%
O=C1N(c2ccccc2)c2ccccc2C1(Cc1ccncc1)Cc1ccncc1 | 4%
CCCCCCCCO | 4%
Cc1c(C(=O)O)c(O)cc2c1C(=O)c1c(O)c([C@H]3O[C@H](CO)[C@@H](O)[C@H](O)[C@H]3O)c(O)c(O)c1C2=O | ?
CCCC(NC(C)C(=O)N1C(C(=O)O)CC2CCCCC21)C(=O)OCC (configuration not stated) | 0%
N=C(N=C(N)N)N1CCOCC1 | 5%[25.6 µM]
C=CC(C)(O)CC/C=C(\C)CCC=C(C)C (configuration not stated) | 2%
CN(C)CCCSc1ccccc1NC(=O)/C=C\c1ccccc1 | -4%
Cc1coc2c1C(=O)C(=O)c1c-2ccc2c1CCCC2(C)C | 25µM*
C=CCSCC=C | 2%

# Structural class, those above containing sulfur
compound | HSD17B inh
NS(=O)(=O)c1cc2c(cc1C(F)(F)F)NC(Cc1ccccc1)NS2(=O)=O (configuration not stated) | -1%
Nc1nccs1 | -3%
NS(=O)(=O)c1cc2c(cc1C(F)(F)F)N[C@H](Cc1ccccc1)NS2(=O)=O | 2%[25.6 µM]
CN1CCC(=C2c3ccccc3CCc3sccc32)CC1 | 5%
CN(C)CCCSc1ccccc1NC(=O)/C=C\c1ccccc1 | -4%
C=CCSCC=C | 2%
